miR-21 FLuc – raises the signal of a miR-21 reporter; AID 2288; Potency, µM (titrated, usually from 38.3 µM), for inactives: at the highest dose reporter change, positive = more light; HeLa miR-21 FLuc reporter, luciferase, 48 h; 340,000 tested, under 10 active; active = well fitted rising curve with a large enough effect; inconclusive = small, poorly fitted or top-dose-only effect; inactive = no such curve, though single readings can be large or run the other way;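 further: % of control where 0% means no effect; miR-21 action dims this reporter so a rising signal means less miR-21 action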
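HeLa cells endogenously expressing miR-21, stably carrying CMV-driven firefly luciferase with a downstream miR-21 binding site, 2000 cells/well. Titrations up to approximately 40 uM, 48 hours; luciferase luminescence read.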
Numbers without * were called inactive; ? = inconclusive.

miR-21 FLuc	Compound
-0.7%	CCCOc1ccc(C2C(=O)N(C3CCCCCC3)CC(=O)N2Cc2ccc(OC)cc2)cc1OC (stereo not drawn)
0.0%	Cc1nc2sccn2c(=O)c1S(=O)(=O)Nc1ccc(N2CCOCC2)cc1
?	CCOC(=O)c1c(C)oc2nc(C)nc(N3CCN(c4ccccc4)CC3)c12
-9.2%	Cn1c(=O)c2c(ncn2CC(=O)Nc2cc(Cl)cc(Cl)c2)n(C)c1=O
-7.2%	COc1ccc(Cl)cc1C(=O)NCC(c1ccc(N(C)C)cc1)N1CCCC1 (stereo not drawn)
-59.0%	CC1CCCN(c2csc3ccccc3c2=O)C1 (stereo not drawn)
1.2%	Cc1cccc(-n2c(=O)c3ccccc3n(Cc3ccc(F)cc3)c2=O)c1
-1.3%	CCc1cccc(NC(=O)Cc2nc(-c3ccc(OC)cc3)no2)c1
4.3%	COc1cccc(CCNc2ncnc3c2nnn3C)c1
3.6%	CC(C)Nc1cc(N2CCN(C3CCCCC3)CC2)c2noc3c2c1C(=O)c1ccccc1-3
-9.4%	Cc1ccc(N2CCN(S(=O)(=O)c3nnc(NC(=O)c4cccc(F)c4)s3)CC2)cc1
-5.9%	COc1ccccc1Cc1nc2ccccc2nc1SCC(=O)N1CCc2ccccc21
-0.4%	CC(C)(C)c1ccc(C(=O)Nc2ccc(-c3nc4ccccc4o3)c(O)c2)cc1
-1.2%	O=C(COc1ccccc1)Nc1sc2c(c1C(=O)Nc1ccccc1Cl)CCCCC2
6.0%	O=C(CSc1n[nH]c(-c2ccccc2)n1)N1CCN(c2ccc(F)cc2)CC1

miR-21 FLuc	Compound
-7.6%	CCC1CCCCN1C(=O)Cn1c(=O)n(CCCCCC(=O)NCc2ccc(F)cc2)c(=O)c2sccc21 (stereo not drawn)
-0.1%	CC1CCC(NC(=O)c2cc3c(Cl)nc4ccccc4c3s2)CC1 (stereo not drawn)
5.8%	CCc1nn(CC(=O)N(C)Cc2ccccc2)c(=O)c2cc3sccc3n12
-27.2%	CC(C)(C)C1CCc2c(sc3nc(-c4cc5cc(Cl)ccc5oc4=O)[nH]c(=O)c23)C1 (stereo not drawn)
17.4%	CC(=O)c1ccc(NC(=O)c2cccc(NC(=O)N3CCSc4ncccc43)c2)cc1
-21.1%	Cc1oc2ccc(O)c(CN3CCCC3)c2c1C(=O)Nc1cccc(Cl)c1C
-3.0%	Cc1ccc(CNC(=O)c2cc(C3CC3)nc3c2c(C)nn3-c2cccc(Cl)c2C)cc1
0.0%	Cc1cc2c(cc1NS(=O)(=O)c1ccc(F)cc1)n(C)c(=O)c(=O)n2C
-7.9%	Cc1ccc(-n2cnc3cc(C(=O)NCc4ccc(F)cc4)ccc32)c(C)c1
0.5%	Cc1ccc(NC(=O)COc2ccc3oc4c(c3c2)CCCC4)cc1C
-0.3%	COc1ccc(OC)c(Nc2sc(C(=O)c3ccccc3)c(N)c2S(=O)(=O)c2ccccc2)c1
-28.3%	O=C(Nc1ccccc1)N(Cc1c[nH]c2ccccc12)C1CCCCCC1
0.8%	CCc1ccc(NC(=O)CSc2nc(-c3ccccc3)no2)cc1
-4.8%	CCOCCCNC(=O)c1cc2c(=O)[nH]c3ccccc3c2n1C
-23.1%	COc1cccc(-n2c(SCC(=O)c3ccccc3)nc3c([nH]c4ccccc43)c2=O)c1

Exported as comma-separated lines: six of the compounds above
Compound,miR-21 FLuc
Cc1ccc(-n2cnc3cc(C(=O)NCc4ccc(F)cc4)ccc32)c(C)c1,-7.9%
Cc1ccc(NC(=O)COc2ccc3oc4c(c3c2)CCCC4)cc1C,0.5%
COc1ccc(OC)c(Nc2sc(C(=O)c3ccccc3)c(N)c2S(=O)(=O)c2ccccc2)c1,-0.3%
O=C(Nc1ccccc1)N(Cc1c[nH]c2ccccc12)C1CCCCCC1,-28.3%
CCc1ccc(NC(=O)CSc2nc(-c3ccccc3)no2)cc1,0.8%
CCOCCCNC(=O)c1cc2c(=O)[nH]c3ccccc3c2n1C,-4.8%

Following part
miR-21 FLuc	Compound
2.5%	COc1ccccc1N1CCN(C(CNC(=O)C(=O)NCCN(C)C)c2cccnc2)CC1 (stereo not drawn)
6.8%	CCC1CN(C(=O)N2CCC(C(=O)N3CCN(c4ccccc4)CC3)CC2)c2ccccc2O1 (stereo not drawn)
-8.5%	CCCc1nn2c(=O)cc(COC(=O)c3cccs3)nc2s1
-8.5%	CCSC1=NC2(CCN(C(=O)NC3CCCCC3)CC2)N=C1c1ccc(C)c(C)c1
0.6%	Cc1ccc(-c2nc3ccccc3o2)cc1NC(=O)Cc1ccc(Cl)cc1
-6.4%	CC(=O)Nc1ccc(-c2nnc3n(Cc4ccc(C)cc4)c(=O)c4ccccc4n23)cc1
-4.7%	CCOC(=O)CNC(=O)c1cc2c(=O)n3cccc(C)c3nc2s1
3.9%	CCC(=O)Nc1ccc(CC)cc1-c1nc2ccccc2n(CC(=O)c2ccc(OC)cc2)c1=O
0.4%	Cc1ccc(CNC(=O)CCc2cn(Cc3ccc(C)cc3)c3ccccc23)cc1
?	COc1cccc(C(=O)N2c3nc(-c4ccco4)nn3C3(CCCCC3)[C@@H]3CCCC[C@@H]32)c1
1.8%	COc1cccc(CNC(=O)c2ccc3c(c2)N(C)C(=O)C2CCCCN32)c1 (stereo not drawn)
2.0%	CC(=O)c1cccc(-n2c(=O)c3c4c(sc3n(Cc3ccccc3Cl)c2=O)CN(C(C)=O)CC4)c1
24.3%	CCCN(C(=O)COc1cc(=O)n(CC)c2ccccc12)c1ccc(C(C)C)cc1
-35.9%	CCOc1ccc(-c2cc3c(=O)n(CC(=O)NCc4ccc(F)cc4)ccn3n2)cc1
-14.8%	Nc1c(C(=O)NCc2ccc(Cl)cc2)sc2nc(-c3ccc(F)cc3)ccc12

miR-21 FLuc	Compound
-4.7%	CCc1nnc(NC(=O)CSc2nc3c([nH]c4ccccc43)c(=O)n2-c2ccc(F)cc2)s1
13.6%	COc1cccc(-c2n[nH]c3c2C(c2cccc(O)c2)N(C)C3=O)c1 (stereo not drawn)
-12.7%	Cc1ccc(OCC(=O)OCc2cc(=O)n3nc(-c4cccs4)sc3n2)cc1
-8.0%	COc1ccccc1-c1noc(-c2ccc(N3CCN(c4ccccc4)CC3)c([N+](=O)[O-])c2)n1
0.4%	Cc1cccc(N2CCN(C(=O)CN3C(=O)CSc4c3c(C)nn4-c3ccccc3)CC2)c1C
-10.3%	COc1ccc(NC(=O)c2ccc3c(c2)c(C)c(C)n3Cc2ccc(F)cc2)c(OC)c1
-2.8%	CSc1ccc(CCNc2ncnc3onc(C)c23)cc1
-12.2%	COc1ccc(-c2cc(OC(=O)c3ccccc3Cl)c3c(C)oc(C)c3c(=O)c2)cc1OC
-6.0%	Cc1ccccc1CN1CCC(CNC(=O)c2cc3ccc4cccnc4c3[nH]2)CC1
15.5%	CCN(CC)C(=O)CSc1nc2cc3c(cc2c(=O)n1Cc1ccc(C(=O)NCCc2ccc(OC)c(OC)c2)cc1)OCO3
25.3%	COc1ccc(CCNC(=O)c2nc(SCc3ccc(F)cc3)ncc2Cl)cc1OC
-6.0%	CC(C)c1ccc(NC(=O)Cn2c(=O)n(CC3CCC(C(=O)NCCc4ccccc4)CC3)c(=O)c3ccccc32)cc1 (stereo not drawn)
2.6%	CC(C)c1cnc2c(c1SCC(=O)Nc1ccc(OC(F)(F)F)cc1)c(=O)n(C)c(=O)n2C
-10.0%	Cc1ccc(-c2nn(-c3ccc(F)cc3F)c3c2cnc2c(F)cccc23)cc1
14.9%	Cc1cc(C)cc(NC2=C(c3ccccc3)C(=O)c3ccccc32)c1

miR-21 FLuc	Compound
5.5%	COc1ccc(CCNC(=O)C2=C(C)C(=O)OC23CCCCC3)c(OC)c1OC
-0.5%	CSc1nc(=O)c2c(n1C)NC(=O)CC2c1ccccc1OC(C)C (stereo not drawn)
5.3%	Cc1oc2ncn(C)c(=O)c2c1C(=O)Nc1ccc(F)cc1
10.4%	CN1C(=O)Cc2cc(S(=O)(=O)CCC(=O)Nc3cccc(C(F)(F)F)c3)ccc21
-0.9%	CC(=O)c1ccc(NS(=O)(=O)c2cccc(S(=O)(=O)c3ccc(Cl)cc3)c2)cc1
?	CCOC(=O)c1ccc(NC(=O)CCc2c(C)nc3c(c(C)nn3C(C)(C)C)c2C)cc1
0.2%	CCc1ccc(NC(=O)CC2C(=O)N(c3ccc(OC)cc3)C(=O)N2Cc2ccc(OC)cc2)cc1 (stereo not drawn)
7.5%	CCOC(=O)c1cc2c(=O)n3ccccc3nc2n(Cc2ccco2)c1=NC(=O)c1cccc(C)c1
-38.9%	Cc1cc(C)c(NC(=O)CN2C(=O)c3cccnc3Sc3ccccc32)c(C)c1
1.7%	C=C(C)CSc1nc2sc3c(c2c(=O)n1CCCC)CCCC3
-15.4%	COc1ccc(-c2nc3sc(CCNC(=O)C(=O)Nc4cc(F)ccc4F)c(C)n3n2)cc1
?	CC(C)c1ccc2c(c1)NC(c1ccncc1)=NC(c1cccs1)=N2
-0.9%	Cc1ccc(Cn2c(C)c(CNCc3ccc(OC(C)C)cc3)c(C(=O)O)c2C)cc1
4.0%	COc1cccc(NC(=O)CSc2nc(=O)n(Cc3ccccn3)c3c2CCC3)c1
-66.3%	CCc1ccccc1NC(=O)C(=O)c1cc(C)n(-c2ccccc2F)c1C

Already shown: 4 of the compounds above.
miR-21 FLuc	Compound
-38.9%	Cc1cc(C)c(NC(=O)CN2C(=O)c3cccnc3Sc3ccccc32)c(C)c1
1.7%	C=C(C)CSc1nc2sc3c(c2c(=O)n1CCCC)CCCC3
-15.4%	COc1ccc(-c2nc3sc(CCNC(=O)C(=O)Nc4cc(F)ccc4F)c(C)n3n2)cc1
?	CC(C)c1ccc2c(c1)NC(c1ccncc1)=NC(c1cccs1)=N2

(listing goes on)
miR-21 FLuc	Compound
-0.7%	CCN(C(=O)c1cc2c(Cl)nc3ccc(C)cc3c2s1)c1cc(OC)ccc1OC
-8.2%	Cc1ccc(Cl)cc1NC(=O)CC1Sc2ccccc2NC1=O (stereo not drawn)
-14.4%	Cc1ccc2nc(NC(=O)CSc3nccn3-c3ccc(Cl)cc3)sc2c1
11.2%	CCN(CC)c1ccc(NS(=O)(=O)c2ccc(-c3coc(C)n3)cc2)c(C)c1
-1.0%	CCOc1ccc(CCNC(=O)c2ccc(-c3nc(CSc4ccccc4)c(C)o3)cc2)cc1
-2.5%	Cc1cc2nc(-c3ccc(OCc4ccc(F)cc4)cc3)cc(C(F)(F)F)n2n1
0.9%	COc1ccccc1CCNC(=O)Cc1ccc(NC(=O)N2CCSc3ncccc32)cc1
-4.0%	O=C1CC(c2cccc(Cl)c2Cl)c2cc3c(cc2N1)OCCO3 (stereo not drawn)
4.4%	CCOc1cccc2sc(N(Cc3cccnc3)C(=O)c3ccco3)nc12
-14.8%	CC(NC(=O)c1ccc(Nc2nc3ccccc3n3nnnc23)cc1)c1ccccc1 (stereo not drawn)
-0.8%	COc1ccc(OC)c(Nc2cc(C(=O)NCc3ccccc3)c3ccccc3n2)c1
-1.6%	COc1ccccc1CCNC(=O)c1cccn1-c1nnc(N2CCCCC2)s1
-2.3%	CCc1ccc(-n2cnc3cc(C(=O)NCc4ccc(C)cc4)ccc32)cc1
-10.6%	COc1ccc(-c2cc(C(=O)O)n(Cc3ccccc3)n2)cc1
-13.2%	COc1ccc2oc(=O)c(C(=O)NCCc3c(C)[nH]c4c(Cl)cccc34)cc2c1

miR-21 FLuc	Compound
1.2%	CCCCNC(=O)Cn1c(=O)cc(C)c2c(C)nn(-c3cccc(Cl)c3C)c21
-2.6%	Cc1ccc(CNc2nc3c(c(=O)n(C)c(=O)n3C)n2Cc2ccc(Cl)cc2)cc1
0.4%	COc1ccc(Nc2nc(-c3ccccc3)c3cc(Br)ccc3n2)cc1
-4.4%	CC1=C(C(=O)Nc2cccc(F)c2)C2(CCCCC2)OC1=O
0.1%	CC1=C(c2ccc(F)cc2)S(=O)(=O)NC1=NCc1ccccc1F
-8.8%	CCOC(=O)c1cnc2cc(-c3ccc(Cl)cc3)nn2c1-c1ccccc1
-68.0%	CCc1nn2c(=O)cc(COC(=O)c3cccs3)nc2s1
28.2%	Cc1ccc(Cl)cc1NC(=O)CSCc1cnn(-c2ccccc2)c1-n1cccc1
0.3%	Cc1ccc(-n2c(=O)c3cccnc3n2CC(=O)NCc2ccc(Cl)cc2)cc1
23.3%	CC1=C(C(=O)NCc2cccc(Cl)c2)C2(CCCCCC2)OC1=O
-7.0%	CCCc1nn2c(=O)cc(COC(=O)c3cccc(NC(=O)CCc4ccccc4)c3)nc2s1
-1.5%	COc1ccccc1CNC(=O)CCn1c(=O)c2ccccc2n(CC(=O)Nc2ccc(Br)cc2F)c1=O
-4.5%	Cc1cc(C)c(Cn2c(C(O)c3ccccc3)nc3ccccc32)c(C)c1 (stereo not drawn)
-8.4%	Cc1ccc(OCc2ccc(-c3nc(C#N)c(N4CCC(C)CC4)o3)o2)cc1
-6.0%	CCN(CC)c1nc2c(S(=O)(=O)c3ccc(C)cc3)nnn2c2ccsc12

miR-21 FLuc	Compound
-4.0%	Cc1ccc(CNCc2ccccc2)s1
-4.8%	COc1ccc(C2=C(C)C(N3CCC(C(=O)NCc4ccco4)CC3)=NS2(=O)=O)cc1
-5.0%	O=C(CCn1c(=O)c2ccccc2n(CC(=O)Nc2cccc(F)c2)c1=O)NCCc1ccccc1
-0.2%	COc1ccccc1CN1C(=O)CN(C2CCCCCC2)C(=O)C1c1ccc(C)cc1 (stereo not drawn)

An excerpt from above in order of their number in miR-21 FLuc, highest first.
molecule	miR-21 FLuc
COc1ccccc1CN1C(=O)CN(C2CCCCCC2)C(=O)C1c1ccc(C)cc1 (stereo not drawn)	-0.2%
Cc1ccc(CNCc2ccccc2)s1	-4.0%
COc1ccc(C2=C(C)C(N3CCC(C(=O)NCc4ccco4)CC3)=NS2(=O)=O)cc1	-4.8%

Assay outcomes deposited in PubChem by National Center for Advancing Translational Sciences (NCATS).

This is a subset; rates above refer to the full screens.
